FGF22 binding: binders of recombinant human FGF22 by thermal shift; AID 651658; Q9HCT0; SYPRO orange fluorescence; percent of sucrose octasulfate shift, DMSO zero; calls only at 9.99 µM; 340,000 tested, 1.5% active;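 active = melting point raised past a set limit in the mean and every replicate; inconclusive = no clear call; three in four hits are not shown here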
Target sequence (Q9HCT0 whole entry, looked up): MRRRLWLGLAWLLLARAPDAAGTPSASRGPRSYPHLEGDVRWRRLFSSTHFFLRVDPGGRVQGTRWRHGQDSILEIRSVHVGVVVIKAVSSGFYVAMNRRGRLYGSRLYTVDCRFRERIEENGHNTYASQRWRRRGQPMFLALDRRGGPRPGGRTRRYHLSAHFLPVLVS
A1 inh: inhibitors of the anti-apoptotic protein A1, read as caspase activation. MEF A1-2A-BIM cells, Caspase-Glo 3/7 luminescence, 3 h; percent of clofoctol response, vehicle zero. AID 2462. caspase activation, % (no concentration beside the values). 330,000 tested, 0.066% active;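 active = over half of replicate activation scores above 10%, or exactly half above 10 with the replicate mean above 10; inconclusive = replicate mean below 10 yet half the replicates above 10; inactive = over half of replicates below 10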;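 also: wells of about 30 µL received 50 nL stock; many hits fall short of the cut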
T cruzi repl: blocks replication of Trypanosoma cruzi | T. cruzi beta-gal in NIH3T3, luminescence, 90 h | AID 1885 | 300,000 tested, 1.4% active | inhibition, % (test concentration not listed);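 active = mean inhibition across valid replicates above about 55%, limit read from the data; inconclusive = mean below that limit but half or more replicates reach it; inactive = mean below it, under half of replicates reach it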;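 also: signal also drops with host cell toxicity which is not excluded here; 0% = plate median of DMSO wells and 100% = zero luminescence signal; higher percent means less beta-gal luminescence so fewer parasites; stock transfer was 50 nL into about 50 µL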
Beta cell apopt: blocks beta cell apoptosis; 300,000 tested, 0.8% active; AID 435005; INS-1E cytokine-induced death, ATP luminescence, 48 h; percent of positive-control rescue, neutral wells zero; protection from apoptosis, % (concentration not given with the values);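 active = all replicates at 75% or more, or half of them and the mean; inconclusive = half reach 75% but not the mean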;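 also: 0% = cytokine-treated negative control wells and 100% = positive control rescue; higher means more ATP so stronger rescue from cytokine killing; wells of about 40 µL received 100 nL stock; the first replicate is given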
Ecoli growth: inhibitors of Escherichia coli growth; OD600, 23 h; stronger effect = lower value; OD600 absorbance (concentration not given with the values); 330,000 tested, 0.21% active;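 active = OD600 absorbance below the run mean of sample wells minus 3.6 SD, in any replicate, cut at about 0.56 in these data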;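 also: stock transfer was 300 nL into about 60 µL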
MLL AF4-AF9 inh: blocks AF4 peptide binding to human AF9; inhibition, % at 10 µM; 350,000 tested, 0.47% active; AlphaScreen, biotin-AF4 peptide binding to FLAG-AF9; AID 651704;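 active = every replicate reaching a set inhibition limit, whatever the replicate mean, cut at about 25% in these data; inconclusive = mean inhibition reaches that limit but some replicates miss it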;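 also: 0% = plate neutral control median and 100% = total signal loss; the record names both 10 and 1 µM as test concentration; the first replicate is given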
Target sequence (P42568 whole entry, looked up): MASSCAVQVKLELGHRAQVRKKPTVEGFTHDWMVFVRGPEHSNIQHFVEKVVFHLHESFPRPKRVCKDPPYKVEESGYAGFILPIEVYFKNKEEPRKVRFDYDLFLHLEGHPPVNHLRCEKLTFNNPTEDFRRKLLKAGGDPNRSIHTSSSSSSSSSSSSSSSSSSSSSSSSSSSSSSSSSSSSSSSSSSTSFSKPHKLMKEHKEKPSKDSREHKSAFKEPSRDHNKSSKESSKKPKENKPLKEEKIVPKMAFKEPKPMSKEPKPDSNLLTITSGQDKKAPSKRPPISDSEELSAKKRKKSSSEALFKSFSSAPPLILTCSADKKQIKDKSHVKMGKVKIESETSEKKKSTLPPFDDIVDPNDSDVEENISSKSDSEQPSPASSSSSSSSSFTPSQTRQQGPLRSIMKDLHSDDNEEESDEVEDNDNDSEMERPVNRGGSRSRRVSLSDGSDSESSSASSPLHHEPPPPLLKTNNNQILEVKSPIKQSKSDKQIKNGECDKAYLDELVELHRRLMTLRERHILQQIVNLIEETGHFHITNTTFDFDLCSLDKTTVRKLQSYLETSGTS
UCH37 inh: blocks the human deubiquitinase UCH37. purified proteasome/UCH37, Ub-AMC cleavage fluorescence. inhibition, % (no concentration beside the values). 330,000 tested, 0.33% active. AID 588478;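 active = mean of two replicates above 20%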;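 also: 0% = compound-free wells with enzyme and 100% = wells lacking proteasome; stock transfer was 100 nL into about 20 µL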
Target sequence (Q9Y5K5 whole entry, looked up): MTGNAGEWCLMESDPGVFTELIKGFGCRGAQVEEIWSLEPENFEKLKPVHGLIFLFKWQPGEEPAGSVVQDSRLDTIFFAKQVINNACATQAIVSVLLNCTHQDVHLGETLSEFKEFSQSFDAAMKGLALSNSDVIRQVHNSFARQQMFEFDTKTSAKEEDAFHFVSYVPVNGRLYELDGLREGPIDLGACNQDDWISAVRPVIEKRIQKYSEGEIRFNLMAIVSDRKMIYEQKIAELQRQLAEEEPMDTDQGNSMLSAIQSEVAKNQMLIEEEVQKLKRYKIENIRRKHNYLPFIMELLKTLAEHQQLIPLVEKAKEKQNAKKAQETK
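Material: Human UCH37 enzyme supplied as purified proteasome complex | Schedule: 30 min compound-proteasome preincubation then 25 min substrate reaction, room temperature | Detection: AMC fluorescence from Ub-AMC cleavage, excitation 355 nm, emission 460 nm | Benchmarks: Wells without proteasome as full block, compound-free enzyme plus substrate as uninhibited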
rRNA inh HTS: inhibits bacterial ribosomal RNA function over humanized ribosomes; GFP signal change (wild-type ribosome), % (test concentration not listed); E. coli WT GFP vs humanized-ribosome RFP mutants, fluorescence, 24 h; stronger effect = lower value; DMSO median 0, no signal -100; 350,000 tested, 1.6% active; AID 720706;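 active = significant combined selectivity score with lowered wild-type GFP, culture density cut under 30%, mutant RFP and density less affected; inactive = any of these conditions unmet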; also: one replicate is shown; some compounds called inactive have numbers as strong as hits
rRNA inh HTS OD600: second read-out of rRNA inh HTS, no call of its own (marks repeat the call); OD600 change, %; measured here: OD600 growth;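 optical density of the mix in the first replicate; 0 = DMSO median and -100 = no signal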
rRNA inh HTS RFP: recorded beside rRNA inh HTS, whose call it bears; RFP signal change, %; measured here: RFP humanized mutant strains;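 first replicate; 0 = DMSO median and -100 = no signal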
Numbers without * were called inactive; i = inactive; ? = inconclusive; · = no result given.

Every second line gives: FGF22 binding	A1 inh	T cruzi repl	Beta cell apopt	Ecoli growth	MLL AF4-AF9 inh	UCH37 inh	rRNA inh HTS	rRNA inh HTS OD600	rRNA inh HTS RFP
> NS(=O)(=O)c1ccc(CNC(=O)C2(c3ccc(Cl)cc3)CC2)cc1
  i	1.4	0	0	0.69	-1.2	0.6	4	7	-0.1
> O=C(Nc1cccc([N+](=O)[O-])c1)Nc1ccc(Cl)cn1
  i	0.1	-3	4	0.66	-2.7	4.0	13	2	1.3
> O=C(C1CCCN(c2ncccn2)C1)N1CCc2ccccc21 (centres undefined)
  ·	0.1	22	-1	0.62	·	-4.1	·	·	·
> COCCNc1nnc(SCC(=O)NC2CCCCC2)s1
  i	-0.2	·	13	0.71	-6.8	3.0	9	10	-0.5
> Cc1ccnc(NS(=O)(=O)c2ccc3c(c2)CCO3)c1
  i	1.1	-12	2	0.69	-2.1	3.0	11	13	1.7
> COc1ccccc1NC(=O)C1=C(C)Nc2nnnn2C1c1ccccc1OC (centres undefined)
  ·	0.4	5	-2	0.72	·	-8.7	·	·	·
> NS(=O)(=O)c1cccc(NC(=O)CSc2nnc(-c3ccccc3F)n2C2CC2)c1
  i	0.0	-18	-10	0.68	-1.3	3.0	-29*	-13*	-1.8*
> CCC(SC1=N/C(=C/c2ccccc2OC)C(=O)N1c1ccccc1)C(=O)Nc1cc(C)on1 (centres undefined)
  ·	-0.2	7	4	0.76	·	-2.3	·	·	·
> O=C(Nc1cccc2[nH]ncc12)c1ccc(F)cc1
  ·	-3.5	-13	-15	0.68	·	3.7	·	·	·
> COCCN1CC(=O)N(c2cccc(C)c2C)C(c2ccc(Cl)cc2)C1=O (centres undefined)
  ·	-0.4	12	-1	0.72	·	5.0	·	·	·
> C=CCN=C1S/C(=C\c2ccc(Cl)cc2)C(=O)N1CC=C
  i	-0.4	6	·	·	6.2	·	-9	-9	2.5
> O=C(N/N=C/c1ccccc1C(F)(F)F)c1ccc2nc[nH]c2c1
  i	1.0	-12	4	·	5.6	·	-25*	-10*	-2.2*
> C/C(=C\c1ccccc1)C(=O)NCc1ccco1
  i	0.0	-1	-3	·	-0.3	1.0	0	3	0.4
> CCCN(CC1CC1)C(=S)Nc1ccc(C(C)=O)cc1
  i	0.2	-10	-2	0.72	0.0	2.7	8	6	-8.3
> Cc1ccccc1Cn1cccc1/C=C1/C(=N)N2C=CSC2=NC1=O
  ·	0.3	-12	-3	·	·	-7.9	·	·	·

Another view of part of the listing above.
Structure	FGF22 binding	A1 inh	T cruzi repl	Beta cell apopt	Ecoli growth	MLL AF4-AF9 inh	UCH37 inh	rRNA inh HTS	rRNA inh HTS OD600	rRNA inh HTS RFP
O=C(C1CCCN(c2ncccn2)C1)N1CCc2ccccc21 (centres undefined)	·	0.1	22	-1	0.62	·	-4.1	·	·	·
COc1ccccc1NC(=O)C1=C(C)Nc2nnnn2C1c1ccccc1OC (centres undefined)	·	0.4	5	-2	0.72	·	-8.7	·	·	·
COCCNc1nnc(SCC(=O)NC2CCCCC2)s1	i	-0.2	·	13	0.71	-6.8	3.0	9	10	-0.5
CCCN(CC1CC1)C(=S)Nc1ccc(C(C)=O)cc1	i	0.2	-10	-2	0.72	0.0	2.7	8	6	-8.3

(cont.)
Every second line gives: FGF22 binding	A1 inh	T cruzi repl	Beta cell apopt	Ecoli growth	MLL AF4-AF9 inh	UCH37 inh	rRNA inh HTS	rRNA inh HTS OD600	rRNA inh HTS RFP
> O=C(CCC(=O)N(CC(=O)NC1CCCCC1)Cc1ccc(F)cc1)Nc1nccs1
  ·	0.2	6	8	0.71	0.3	2.1	-1	4	-3.1
> CN(CCc1ccccn1)C(=O)c1ccc(OC2CCN(CCc3ccccc3)CC2)cc1
  i	0.0	7	0	0.69	1.0	1.7	4	4	-1.1
> COc1ccc(S(=O)(=O)N(C)CC(=O)NCc2cccnc2)cc1OC
  ·	0.1	-12	-8	0.62	·	1.6	6	12	-0.9
> COc1cccc(NC(=S)N(CCC(C)C)C2CCN(C(C)=O)CC2)c1
  i	0.4	12	2	0.65	2.3	1.0	13	6	5.6
> Cc1cc(C(F)(F)F)nn1CC(=O)N1CCCCC1C (centres undefined)
  ·	0.0	-1	2	0.76	·	-1.6	·	·	·
> CC(=O)NN1C(=O)c2ccccc2NC1c1ccc([N+](=O)[O-])o1 (centres undefined)
  i	0.3	47	55	0.6	-4.1	5.2	32	1	2.9
> O=[N+]([O-])c1ccc(-n2cccn2)c(-c2nn[nH]n2)c1
  i	0.5	-18	-3	0.67	-0.3	7.1	16	17	-1.8
> COc1ccc(CCNC(=O)CSc2ccc3nnc(CCNC(=O)c4ccccc4)n3n2)cc1OC
  i	1.4	0	-2	0.72	1.7	0.3	4	4	0.2
> CCOC(=O)N/N=C/c1cccnc1
  i	0.0	-6	3	·	-2.0	·	20	20	-0.8
> CCOc1ccccc1N1CCN(C(=O)CC(C)C)CC1
  i	0.5	-2	-1	0.68	?	5.7	9	17	11
> CCOc1ccc(OCC)c(NC(=O)C2CCN(S(=O)(=O)c3cccc4nonc34)CC2)c1
  ·	0.0	24	0	0.7	·	2.1	·	·	·
> O=C(CSc1nnc(CNC(=O)c2ccco2)o1)Nc1ccc(Cl)cc1
  i	0.6	-8	-5	0.67	0.5	-0.2	2	-1	-2.6
> O=C(NCC1CCCO1)c1cc2c(=O)[nH]c3ccccc3c2s1 (centres undefined)
  i	-0.3	-3	0	0.66	-3.1	-187	11	5	-0.3
> O=S(=O)(Cc1ccc(Cl)cc1)NCc1cccnc1
  i	-0.5	-10	-12	0.65	0.2	4.9	-4	-5	0.8
> COc1ccccc1C(=O)O[C@H]1[C@H](Cc2ccccc2)NS(=O)(=O)[C@H]2C[C@@H]3C=C[C@]12O3
  i	-0.4	·	-4	0.8	-1.3	6.4	4	23	-1.2
> O=C1CC(C2CCCO2)C(=O)N1c1ccc(Cl)c(Cl)c1 (centres undefined)
  ·	-0.5	-9	1	0.7	-0.2	4.3	13	18	5.6
> Cc1cc(C(=O)N2CCN(c3ccccc3Cl)CC2)c(C)o1
  i	-0.7	·	2	0.68	2.8	5.2	-8	-14	-0.4
> CCOc1ccccc1NC(=S)NCC1CCCO1 (centres undefined)
  i	-0.1	-13	-2	0.68	-3.2	-0.6	1	5	-5.5
> COC(=O)c1cc2c(ccn2-c2ccc(F)cc2)n1Cc1ccc(C#N)cc1
  i	0.3	23	-2	0.67	-2.6	-1.4	5	5	1.3
> COc1cc(C2NC(=O)NC(C)=C2[N+](=O)[O-])cc(OC)c1OC (centres undefined)
  i	0.0	-10	1	0.71	-0.4	11	6	6	2.4
> Cc1cc(C)c2nc(NNC(=O)c3cc(-c4cccs4)nc4ccccc34)sc2c1
  i	0.8	46	·	0.8	-5.9	-4.2	-2	1	6.2
> CCOc1ccc(NS(=O)(=O)c2ccc(-c3ccc(=O)[nH]n3)o2)cc1
  i	0.7	5	1	0.61	0.4	2.5	-2	-8	0.4
> CN(Cc1cnn(C)c1)Cc1nc(-c2ccc(Cl)cc2)no1
  i	0.8	-6	-1	0.71	-3.8	4.4	4	0	-0.5
> CC(C)(C)NC(=O)COc1ccc(S(=O)(=O)N2CCCC2)cc1
  i	-0.8	-4	-4	0.66	5.3	5.0	-1	7	-1.8
> Cc1ccccc1C(=O)NC(=S)Nc1cccc(NC(=O)C(C)C)c1
  i	0.9	-15	3	0.68	2.4	2.8	8	7	-0.4
> COc1ccc(S(=O)(=O)N2CN3CCN(C3)C2)cc1
  i	1.3	-3	-9	0.7	-3.0	5.3	12	5	-0.3
> CCOC(=O)[C@H]1[C@H]2COc3cc(OC)ccc3[C@@H]2N2C(=O)c3cc(OC)ccc3NC(=O)[C@@]12C
  i	-0.2	·	-4	·	3.0	3.5	7	8	-11
> Cc1ccc(C(C)C)cc1OCC(=O)Nc1ccccc1N1CCCC1
  i	0.2	18	-4	0.64	1.4	1.7	11	23	0.3
> CCOC(=O)c1sc(NC(=O)Nc2ccc(F)cc2)nc1C
  i	-0.5	4	·	0.67	0.5	1.1	7	4	-0.1
> CCNc1c(NC(=O)C2CCC(C)CC2)c(=O)oc2ccccc12 (centres undefined)
  i	-0.4	4	4	0.68	-2.4	1.3	4	3	1.1
> O=C(CN1CCCC1c1ccc2c(c1)OCCO2)NC(=O)Nc1ccccc1F (centres undefined)
  i	·	·	·	0.72	5.7	1.0	9	10	2.5
> CC1CCN(C(=O)Cn2c(=O)n(Cc3ccc4c(c3)OCO4)c(=O)c3ccccc32)CC1
  ·	2.5	8	1	0.76	·	1.2	·	·	·
> Cc1cc(/C=C2\SC(=S)NC2=O)c(C)n1C1CC1
  ·	0.5	0	-2	0.75	·	8.6	·	·	·
> C=CCOc1ccnc(-c2ccccc2)n1
  i	0.2	-2	-3	0.65	0.1	0.8	2	17	-3.1
> C=CCC1[C@H](C)[C@H]2[C@@H]3CC[C@@H](C3)[C@H]2CN1S(=O)(=O)c1ccc(C)cc1 (some centres undefined)
  i	·	·	·	0.69	-4.4	1.3	18	15	4.7
> O=C(NCCN1CCCCC1)/C(=C/c1ccco1)NC(=O)c1ccccc1
  i	1.4	-4	0	0.69	-4.0	2.2	10	7	0.9
> COc1cccc(S(=O)(=O)Nc2ccc(C(=O)N3CCCCCC3)cc2)c1
  i	0.1	-7	1	0.72	-1.6	0.3	-20	-17	0.7
> O=CN1N=C(c2ccccc2)CC1c1ccccc1[N+](=O)[O-] (centres undefined)
  i	-0.2	-24	-3	0.7	3.1	2.5	3	-14	-2.8
> O=S(=O)(NCCc1ccc2c(c1)OCCO2)c1cccs1
  ·	-0.6	-14	-9	0.68	·	-1.8	·	·	·
> O=C(C1CC=CCC1)N1CCC(CO)(Cc2ccc(Cl)cc2)CC1 (centres undefined)
  i	0.0	5	-2	0.7	?	1.5	-21	-19	6.4
> CCC(Sc1nc2ccc(C)cc2[nH]1)C(=O)O (centres undefined)
  ·	-0.3	-23	-1	0.64	·	3.5	7	4	3.3
> CCCCN(C)CCNC(=O)c1cc2c(=O)[nH]c3ccccc3c2n1C
  i	0.3	46	-5	0.68	1.3	-0.7	9	21	5.8

Exported with tabs: part of the list above
Molecule	FGF22 binding	A1 inh	T cruzi repl	Beta cell apopt	Ecoli growth	MLL AF4-AF9 inh	UCH37 inh	rRNA inh HTS	rRNA inh HTS OD600	rRNA inh HTS RFP
COCCNc1nnc(SCC(=O)NC2CCCCC2)s1	i	-0.2	·	13	0.71	-6.8	3.0	9	10	-0.5
Cc1ccc(C(C)C)cc1OCC(=O)Nc1ccccc1N1CCCC1	i	0.2	18	-4	0.64	1.4	1.7	11	23	0.3

An excerpt; the hit share may differ from the screen's.
